RVFV N-RNA inh – blocks Rift Valley Fever Virus nucleoprotein binding to RNA | AID 651828 | % bound, % (no concentration beside the values) | P21700 | 20,000 compounds, 0.1% hits | RVFV N-RNA binding, fluorescence polarization; hits give low values;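 active = between 0 and 58% in either replicate with normal brightness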;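 note: 100 nL library stock added to about 12 µL; 100% = protein and probe without compound and 0% = probe alone; numbers are from one replicate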
Target sequence (P21700 whole entry, looked up): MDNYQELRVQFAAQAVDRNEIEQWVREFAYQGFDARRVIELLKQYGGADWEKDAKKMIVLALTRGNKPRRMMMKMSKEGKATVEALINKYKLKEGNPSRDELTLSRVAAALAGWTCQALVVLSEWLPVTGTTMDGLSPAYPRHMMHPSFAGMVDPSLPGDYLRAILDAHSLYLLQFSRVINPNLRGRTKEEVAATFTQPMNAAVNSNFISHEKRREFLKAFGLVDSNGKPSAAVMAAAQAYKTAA
Starred values were filed as active, the others as inactive; & = joins results of further samples. The list is partial (hit frequency here may not be typical).

Structure,RVFV N-RNA inh
CC1(C)CC(=O)C2=C(C1)NC(=S)NC2C1CCCCC1 (configuration not stated),97.1
COCCN1CN(S(=O)(=O)c2ccccc2)c2nc3ccccc3nc21,99.8
COCCn1c(C)cc(O)c(C(c2ccncc2)N2CCCCC2)c1=O (configuration not stated),98.1
CC1=NN(C(=O)C(C)C)C(O)(C(F)(F)F)C1 (configuration not stated),96.8
CCOC(=O)/C(C#N)=C/c1ccc(OC)cc1OC,88.8
CC1C/C(=N\NC(N)=O)CC(C)(C)C1 (configuration not stated),107.7
CCCC(=O)Nn1c(=O)[nH]c2ccccc2c1=O,92.6
Cc1c(C#N)sc(C#N)c1C,95.9
CC(=O)Nc1ncc(Cc2ccccc2F)s1,98.8
COc1ccc(P(=O)(CO)c2ccc(OC)cc2)cc1,93.2
O=S(=O)(Nc1ccc(I)cc1)N1CCCCC1,94.6
Cc1cc(S(=O)(=O)NC2CCCCC2)ccc1OCC(=O)Nc1ccc2c(c1)OCO2,98.9
COC(=O)C(=C/C=C/c1cccs1)C(=O)OC,107.3
CCCC1CCc2c(sc(NC(=O)OC)c2C#N)C1 (configuration not stated),96.4
CN1C(=O)/C(=C\c2ccc(-c3ccccc3C(=O)O)o2)C(=O)N(c2ccccc2)C1=S,82.0
CCOC(=O)C1=C(CNCc2ccccc2Cl)NC(=O)NC1c1ccc2c(c1)OCO2 (configuration not stated),103.7

Next part, starting with the last 4 of the part before.
Structure,RVFV N-RNA inh
COC(=O)C(=C/C=C/c1cccs1)C(=O)OC,107.3
CCCC1CCc2c(sc(NC(=O)OC)c2C#N)C1 (configuration not stated),96.4
CN1C(=O)/C(=C\c2ccc(-c3ccccc3C(=O)O)o2)C(=O)N(c2ccccc2)C1=S,82.0
CCOC(=O)C1=C(CNCc2ccccc2Cl)NC(=O)NC1c1ccc2c(c1)OCO2 (configuration not stated),103.7
O=C1CCCC2/C(=N/O)CCCC12 (configuration not stated),96.5
CCCNC(C)C(=O)Nc1ccccc1C (configuration not stated),97.6&93.6
Cc1ccc(OCCc2nc3ccccc3[nH]2)cc1,90.7
O=C(NCC1CCCO1)c1c(O)nc2sccn2c1=O (configuration not stated),94.0
O=C(NCc1ccco1)c1cccc(NC(=O)c2ccc(Br)cc2)c1,100.2
CN(c1ccccc1C(=O)N1CCN(c2ccccc2F)CC1)S(=O)(=O)c1ccccc1,93.8
COC(=O)C#CCN1C(=O)c2ccccc2C1=O,92.9
COc1ccc(/C(C#N)=C\c2ccc(-c3ccccc3Br)o2)cc1OC,96.2
CN1C(=O)CC(P(=O)(c2ccccc2)c2ccccc2)N(C)C1=O (configuration not stated),94.4
N#Cc1cn(C2CCN(Cc3ccccc3)CC2)c(=O)[nH]c1=O,96.4
Fc1ccccc1N1CCN(Cc2nc(-c3ccc(Cl)cc3Cl)no2)CC1,92.2
O=C(CCc1ccc(S(=O)(=O)NCc2ccccc2)cc1)N1CCCC1,91.6
COc1ccc(N/C(C)=C/C(=O)c2ccccc2)cc1,97.7
Cn1c(-c2cc3ccc(O)c(CN4CCCCCC4)c3oc2=O)nc2ccccc21,95.5
C[C@H](NC(=O)/C(C#N)=C/c1ccc(O)c(O)c1)c1ccccc1,94.0
CC(=O)Nc1ccccc1C(=O)OCc1ccccc1F,96.9
O=C(CCCN1CCC(O)(c2cccc(C(F)(F)F)c2)CC1)c1ccc(F)cc1,95.3&89.3
CCOC(=O)N1CCN(C(=O)CSc2nnc3[nH]c(=O)cc(-c4ccccc4)n23)CC1,95.6
Cc1nn2c3ccccc3nc2n(Cc2ccccc2)c1=O,89.8
CCN1CCCC1CNC(=O)c1cc(S(=O)(=O)CC)c(N)cc1OC (configuration not stated),97.2&96.1
CCCCS(=N)(=O)CC[C@H](N)C(=O)O (some centres not stated),89.2
COc1ccc(-c2n[nH]c(=S)n2Cc2ccccc2)cc1OC,96.6
CC1CCN(C(=O)c2ccccc2NC(=O)c2cccnc2)CC1,92.9
N#C/C(=C\c1ccc(-c2cccc(C(=O)O)c2)o1)C(=O)NC1CCCCC1,96.4
COC(=O)C1=C(C)N=c2s/c(=C3\C(=O)Nc4ccccc43)c(=O)n2C1c1ccccc1 (configuration not stated),95.4
Cc1occc1C(=O)NC1CCCc2ccccc21 (configuration not stated),98.2
CC(C)NC(=O)NNc1ccc(-c2csnn2)cc1,96.2
O=C(CSc1nnc2[nH]c(=O)ccn12)NCc1ccc2c(c1)OCO2,97.4
c1ccc(N2CCN(c3nc4ccccc4[nH]3)CC2)nc1,100.1
O=S(=O)(NCCc1csc(-c2ccccc2)n1)c1ccccc1,94.6
Cn1c(=NC(=O)COc2ccccc2)sc2cccc(F)c21,92.9
C(=N\N=C\c1cccs1)/c1cccs1,92.3
Cc1csc2nc(CCNC(=O)c3cccs3)cn12,95.7
COC1=C(OC)C(=O)c2ccccc2C1=O,97.9
Cc1oc(CC(C)C)cc1C(=O)N1CCN(C(=O)c2cc(CC(C)C)oc2C)CC1,96.6
CCN(CC)C(=O)C1(c2ccccc2)CC1CN (configuration not stated),102.8
CC(=O)Nc1cc2c3c(c1)CCC(=O)N3CCC2,100.4
O=C(Nc1ccc2oc(-c3cc(I)ccc3Cl)nc2c1)c1ncn[nH]1,98.6
O=C1CCC(OC(=O)c2ccccc2)CC1,85.8
Cc1ccc(S(=O)(=O)N2CCC(On3nnc4ccccc43)CC2)cc1,99.1

Given with each value named: two of the compounds above.
CCN(CC)C(=O)C1(c2ccccc2)CC1CN (configuration not stated)
  RVFV N-RNA inh: 102.8

Cc1csc2nc(CCNC(=O)c3cccs3)cn12
  RVFV N-RNA inh: 95.7

Carrying on.
Structure,RVFV N-RNA inh
CCn1ncc(NC(=S)NCc2ccco2)c1C(N)=O,94.6
COC(=O)/C=C/S(=O)(=O)c1ccc2ccccc2c1,89.8
O=c1cc(CSc2n[nH]c(=O)n2C2CC2)c2ccc(O)cc2o1,94.0
Cc1cc(Oc2ccc(=O)n(C)n2)nc(=S)[nH]1,92.5
CC(C)C(NC(=O)C1CCCCC1)C(=O)O (configuration not stated),94.0
CCN(C(=O)CS(=O)(=O)c1ccccc1)c1ccccc1C,98.5
NS(=O)(=O)c1ccc(NNC(=O)C2CCN(C(=O)OCc3ccccc3)CC2)cc1,93.5
Cn1nc(C(=O)NCc2ccccc2)cc1C(=O)NCc1ccccc1,99.9
Cc1ccc(C)c(OC(=O)CCN2C(=O)c3ccccc3C2=O)c1,115.1
O=C(CCN1C(=O)c2ccccc2C1=O)OCc1ccc(F)cc1,98.6
Cc1ccccc1C1C2=C(CCCC2=O)Nc2c1c(=O)[nH]c(=O)n2-c1ccccc1 (configuration not stated),87.3
O=C(COc1cccc2c1CCN(Cc1ccccc1)C2=O)N1CCCCCC1,99.0
Cc1ccc(C(=O)NC(=S)N2CCNC(=O)C2)cc1I,88.8
COc1ccc(C2CC(=O)C(C=NCCN3CCNCC3)=C(O)C2)cc1 (configuration not stated),106.1
CC1=CC(=O)N(c2ccc(C)cc2)C1c1ccc(Cl)cc1 (configuration not stated),113.1
Cc1nnc(SCC(=O)n2c3c(c4c2CCCC4)CCCC3)n1Cc1ccccc1,91.9
CCn1c(CCNC(=O)c2ccccc2OC)nc2ccccc21,97.7
O=P(O)(CN1CCOCC1)C1CCCCC1O (configuration not stated),103.5
C/C(=N\N=C(N)N)c1ccc(C)cc1,98.9
COc1ccc(NC(=O)c2ccco2)c(NC(=O)c2ccc(I)cc2)c1,99.0
CC1Cn2c(nnc2C23CC4CC(CC(C4)C2)C3)S1 (configuration not stated),86.7
CC(=NCC1CCCO1)C1=C(O)CC(C)(C)CC1=O (configuration not stated),91.4
NC(=O)CN1C(=O)C(O)(CC(=O)c2ccc(Cl)s2)c2ccccc21 (configuration not stated),101.2
CCN(CC)CCN(C)Cc1c(F)cccc1F,105.1
ONC(=Nc1ccccc1)c1cccnc1,100.6
CCOc1ccc(-c2cccc(NC(=O)Cc3ccc(OC)c(OC)c3)c2)nn1,93.6
C=CCNC(=O)c1ccccc1NC(=O)c1ccccc1NS(C)(=O)=O,91.2
CC(=O)Nc1ccc(-c2nc3cc(Cl)ccc3c(=O)o2)cc1,94.9
COc1cc(OC)cc(C(=O)Nc2nc3ccc4sc(C)nc4c3s2)c1,92.3
CCCn1c(=O)c2c(ncn2C)n(CCC)c1=O,98.8
CC1(C)Cc2c(c(N3CCCCC3)nc3sc(C#N)c(N)c23)CO1,101.6
NS(=O)(=O)c1cc2c(cc1Cl)NC(C(Cl)Cl)NS2(=O)=O (configuration not stated),97.2
C=CCn1c(=NC(=O)c2ccco2)sc2cccc(OCC)c21,95.9
Brc1cccc(-c2nnc3sc(CNCc4ccc5c(c4)OCO5)cn23)c1,94.1
CC[C@@H](C)[C@H]1O[C@]2(CC[C@@H]1C)C[C@@H]1C[C@@H](C/C=C(\C)[C@@H](O[C@H]3C[C@H](OC)[C@@H](O[C@H]4C[C@H](OC)[C@@H](O)[C@H](C)O4)[C@H](C)O3)[C@@H](C)/C=C/C=C3\CO[C@@H]4[C@H](O)C(C)=C[C@@H](C(=O)O1)[C@]34O)O2,94.6
O=C(Nc1ccccc1)C(=S)NC1CCCC1,97.8
NC(=O)c1sccc1Cl,88.7
CN1C(=O)CC(N2CCN(Cc3ccccc3)CC2)C1=O (configuration not stated),90.6
Cc1ccc(CNC(=O)c2ccc3nc[nH]c3c2)cc1,101.3
NC(=S)Nn1c(CCC(=O)O)ccc1-c1cccs1,97.4
CN(C)C(=O)NCc1cccnc1,100.4
N#Cc1cccc(OC(=O)c2ccccc2)c1,92.2
CCCc1[nH]n(-c2nc3ccccc3s2)c(=O)c1C=NCC1CCCO1 (configuration not stated),95.7
NCc1n[nH]c(=S)n1-c1cccc(C(F)(F)F)c1,102.3
CCC(SC1=NCCS1)C(=O)Nc1nnc(-c2ccccc2OC)s1 (configuration not stated),96.7
CC(=O)N=Nc1c2[nH]c3ccccc3nc-2c2ccccc12,99.3
O=C1CC(Cc2ccccc2)C(=O)N1c1ccc(Cl)cc1 (configuration not stated),84.9
O=C(c1cc(F)cc2c1OCOC2)N1CCN(C2c3ccccc3-c3ccccc32)CC1,95.6
CC(C)(C)c1cc(NC(=O)Nc2ccc(Cl)cc2Cl)no1,98.7
O=C(c1cccnc1)N1C(=O)c2cccc3c(S(=O)(=O)N4CCCCC4)ccc1c23,94.7
O=C(O)/C=C\C(=O)NCc1ccco1,96.7
NC1CC1c1ccccc1 (configuration not stated),95.6
CCCCN(C(=O)c1ccc2c(c1)OCO2)C1CCS(=O)(=O)C1 (configuration not stated),91.6
CCOc1cc(C=C2C(=O)NC(=O)NC2=O)cc(Cl)c1O,80.2
CCCC(=N)C1=C(O)CC(CC(C)SCC)CC1=O (configuration not stated),95.6
CN(C)CCN(C)CC1CC=CCC1 (configuration not stated),95.6

Other results follow.
Structure,RVFV N-RNA inh
CCCCC1(C)OC(=O)C(=Cc2ccc(N(C)C)cc2)C(=O)O1 (configuration not stated),121.5
COc1ccc2c(c1)CCC(C)N2S(=O)(=O)c1ccc(C2CNC(=O)C2)cc1 (configuration not stated),97.6
Cc1[nH]n(-c2ccc(Cl)cc2)c(=O)c1C=O,91.9
Clc1ccccc1N1CCN(CC2CC=CCC2)CC1 (configuration not stated),88.4
CCO/N=C(/N)c1[nH]ncc1Br,93.3
NS(=O)(=O)c1cccc(S(=O)(=O)c2ccc(Cl)c(Cl)c2)c1,95.1
NC(=O)Cn1cnc2c(nnn2Cc2ccccc2)c1=O,98.5
CC(C)CN(C[C@@H](O)[C@H](Cc1ccccc1)NC(=O)O[C@H]1CCOC1)S(=O)(=O)c1ccc(N)cc1,97.0
CC(C)(C)C(=O)Nc1nnc(SCC(N)=O)s1,111.4
CCN(CC)c1ccc(NC(=O)c2cccs2)c(N(CC)CC)n1,97.0
O=S1(=O)CC(S(=O)(=O)c2ccccc2)C(S(=O)(=O)c2ccccc2)C1 (configuration not stated),96.6
CCCCCN(CCCCC)C(=O)C(CCC(=O)O)NC(=O)c1ccc(Cl)c(Cl)c1 (configuration not stated),103.5&100.1
CC1(CC(=O)N/N=C/c2cccc(Br)c2)OCCO1,104.0
COC(=O)c1cnc(N2CCCN(C(=O)C3COc4ccccc4O3)CC2)nc1C(F)(F)F (configuration not stated),91.2
CCN1CCC(NC2C3CC4CC(C3)CC2C4)CC1 (configuration not stated),92.5
CCN(CC)C(=O)n1cnc(-c2ccccc2)c1-c1ccccc1,94.8
Cc1ncc(CO)c(/C=N/N=C/c2ccc(Cl)cc2)c1O,95.4
COc1cccc(C(=O)Nc2cccc(-c3ccc4nncn4n3)c2)c1OC,90.4
CCCCN(C(=O)c1ccc2c(c1)OCO2)c1ccccc1,91.1
CC(C)(/C=N/O)/[N+]([O-])=C/c1ccccc1,92.5
O=C(Nc1ccccn1)C1COc2ccccc2O1 (configuration not stated),88.3
Cc1ccccc1CO/N=C\c1[nH]ncc1Br,110.9
COc1cccc(N2CC(=O)N(N)CC2=O)c1,95.2
CN(C)C(=O)NCc1ccc(Cl)cc1,95.7
O=S(=O)(CS(=O)(=O)c1cccc(Cl)c1)c1cccc(Cl)c1,95.8
OC1CCSc2ccc(Cl)cc21 (configuration not stated),94.8

Compound activity as filed in PubChem.
